Vaccinia inh: blocks a specific stage of Vaccinia orthopoxvirus infection, primary screen, cell-based, single point | Vaccinia-infected cells, mCherry/Venus stage reporter fluorescence; hits give low values; some inactives read as strong as hits | activity change (mCherry), % (no concentration beside the values) | actives 0.01% (n = 89,000) | AID 1053133, 2014;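 active means mCherry past -33% and 40 or more points under the early reporter, replicates agreeing; inconclusive means past -33% without that gap or agreement; tested in A549 cells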;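 further: scaled between vehicle wells and reference inhibitor wells; 23 nL library stock went into each well; one replicate is shown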
Vaccinia inh Venus: also measured in Vaccinia inh; calls as there; activity change (Venus), %; measured here: Venus reporter, other viral stage;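 negative = less Venus signal; first of two replicates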
Starred values were filed as active, the others as inactive; ? = inconclusive; / = no result given. Some of the compounds tested (hit frequency here may not be typical).

Preview:
SMILES	Vaccinia inh	Vaccinia inh Venus
O=C(C[C@@H]1CC[C@@H]2[C@H](COC[C@H](O)CN2C(=O)Nc2cccc(F)c2)O1)NCCCN1CCOCC1	-2.3	0.7
O=C(Cc1ccccn1)N1CC(=O)N2[C@H](C1)[C@@H](c1ccc(C#CC3CCCC3)cc1)[C@@H]2CO	-13.6	-12.8
C[C@@H]1CN([C@H](C)CO)C(=O)c2cc(N(C)C)ccc2O[C@@H](C)CCCCO[C@H]1CN(C)C(=O)CCC(F)(F)F	-8.5	1.1

Results, from the first entry:
SMILES	Vaccinia inh	Vaccinia inh Venus
O=C(C[C@@H]1CC[C@@H]2[C@H](COC[C@H](O)CN2C(=O)Nc2cccc(F)c2)O1)NCCCN1CCOCC1	-2.3	0.7
O=C(Cc1ccccn1)N1CC(=O)N2[C@H](C1)[C@@H](c1ccc(C#CC3CCCC3)cc1)[C@@H]2CO	-13.6	-12.8
C[C@@H]1CN([C@H](C)CO)C(=O)c2cc(N(C)C)ccc2O[C@@H](C)CCCCO[C@H]1CN(C)C(=O)CCC(F)(F)F	-8.5	1.1
O=C(CC1CC1)N1CC2(C1)[C@@H](c1ccccc1)[C@@H](CO)N2S(=O)(=O)Cc1ccccc1	-1.5	4.2
C[C@@H]1CCCCO[C@H](CN(C)Cc2ccc(C(F)(F)F)cc2)[C@H](C)CN([C@@H](C)CO)C(=O)c2cc(NC(=O)Nc3ccc(F)cc3)ccc2O1	-18.9	-1.1
C[C@H](CO)N1C[C@H](C)[C@H](CN(C)C(=O)Nc2ccccc2)OCCCC[C@H](C)Oc2ccc(NC(=O)Nc3cccc4ccccc34)cc2C1=O	38.2	18.4
N#Cc1cccc(-c2ccc([C@H]3[C@H]4CN(S(=O)(=O)c5ccccc5)CCCCN4[C@H]3CO)cc2)c1	6.3	3.2
O=C(Nc1cc(F)ccc1F)N[C@@H]1CC[C@@H](CCn2cc(C3CCCCC3)nn2)O[C@H]1CO	7.5	0.8
Cc1noc(C)c1S(=O)(=O)Nc1ccc2c(c1)C(=O)N([C@@H](C)CO)C[C@@H](C)[C@H](CN(C)C(=O)Nc1ccc3c(c1)OCO3)O2	3.4	1.5
CN(C)Cc1cn(CC[C@H]2CC[C@@H](NC(=O)Nc3ccc4c(c3)OCO4)[C@@H](CO)O2)nn1	2.7	2.8
C[C@@H]1CN([C@H](C)CO)C(=O)Cc2cc(NC(=O)CCN3CCOCC3)ccc2O[C@@H]1CN(C)Cc1ccc2c(c1)OCO2	3.8	5.8
Cc1ccc(S(=O)(=O)N(C)C[C@H]2OCCCC[C@@H](C)Oc3ccc(NC(=O)Nc4c(C)noc4C)cc3C(=O)N([C@@H](C)CO)C[C@@H]2C)cc1	10.6	9.8
CN1C(=O)c2cc(NC(=O)C3CCOCC3)ccc2OC[C@H]2O[C@H](CC(=O)NCc3ccccc3F)CC[C@H]21	5.8	8.5
O=S(=O)(c1ccccc1)N1CC2(C1)[C@@H](c1ccccc1)[C@@H](CO)N2CC1CCCC1	?	/
COCC(=O)N1[C@@H]2CN(C(=O)Nc3cc(F)ccc3F)c3ccccc3[C@@H]2[C@@H]1CO	16.0	9.2
N#C[C@@H]1[C@H](c2ccc(-c3cccnc3)cc2)[C@H](CO)N1C(=O)C1CCOCC1	10.1	-5.5
COc1ccc(CN(C)C[C@H]2OCCCC[C@@H](C)Oc3ccc(NC(=O)CCCCCC(=O)Nc4ccccc4N)cc3C(=O)N([C@H](C)CO)C[C@@H]2C)cc1	-1.8	-11.4
Cc1noc(C)c1S(=O)(=O)Nc1ccc2c(c1)C(=O)N([C@@H](C)CO)C[C@H](C)[C@H](CN(C)C(=O)NC1CCCCC1)O2	14.2	14.7
C[C@@H]1CN([C@@H](C)CO)C(=O)c2cc(NC(=O)Nc3ccccc3)ccc2O[C@@H]1CN(C)C	13.3	9.3
O=C(c1ccccc1F)N1C[C@H]2[C@@H](c3ccccc31)[C@H](CO)N2C(=O)Nc1ccccc1	3.9	8.5
C[C@H](CO)N1C[C@H](C)[C@H](CN(C)CC2CCCCC2)Oc2c(NC(=O)c3ccncc3)cccc2C1=O	19.5	24.8
C[C@@H]1CN([C@@H](C)CO)S(=O)(=O)c2ccc(/C=C/c3ccccc3)cc2O[C@@H]1CN(C)C(=O)c1ccncc1	-29.0	-22.1
CCCC(=O)Nc1ccc2c(c1)OC[C@@H](C)N(C(=O)c1ccccn1)C[C@H](C)[C@@H](OC)CN(C)C2=O	5.7	-0.1
C[C@H](CO)N1C[C@H](C)[C@@H](CN(C)C(=O)NC2CCCCC2)Oc2ccc(NC(=O)Cn3cnnn3)cc2C1=O	19.6	11.9
CN1C(=O)c2cc(NC(=O)Nc3ccccc3F)ccc2OC[C@H]2O[C@H](CC(=O)NCCc3ccncc3)CC[C@H]21	-0.6	-1.3
C[C@@H]1CN([C@@H](C)CO)C(=O)CCCn2nncc2CO[C@@H]1CN(C)C(=O)NC1CCCCC1	19.1	7.8
CO[C@H]1CN(C)C(=O)c2ccc(NC(=O)c3ccccc3)cc2OC[C@@H](C)NC[C@H]1C	19.4	17.0
CN(C)C(=O)C[C@@H]1CC[C@H](NS(=O)(=O)c2ccccc2)[C@H](CO)O1	-11.0	-9.1
COc1ccccc1NC(=O)N(C)C[C@H]1Oc2cc(Br)ccc2S(=O)(=O)N([C@@H](C)CO)C[C@@H]1C	-33.0	-13.4
CCC(=O)Nc1ccc2c(c1)C(=O)N(C)C[C@@H](OC)[C@@H](C)CN[C@@H](C)CO2	-2.8	-2.3
C[C@@H](NC(=O)[C@H]1N[C@H]2c3ccc(C4=CCCCC4)c(=O)n3C[C@H]2[C@@H]1CO)c1ccccc1	11.2	10.9
O=C(C[C@H]1CC[C@H]2[C@@H](COC[C@@H](O)CN2Cc2cccc(-c3ccncc3)c2)O1)N1CCOCC1	-7.8	-0.9
O=C(CS)NCCCCCCNC(=O)[C@H]1C[C@H]2C(=O)NCC(=O)N2[C@H]1c1cccc(OCCO)c1	10.4	4.5
Cc1noc(C)c1NC(=O)N(C)C[C@H]1Oc2ncc(C#CC3CC3)cc2C(=O)N([C@@H](C)CO)C[C@H]1C	13.2	1.8
COc1ccc2c3c(n(C)c2c1)[C@@H](CO)N(C(=O)CC1CC1)CC31CN(C(=O)C2CCC2)C1	6.4	6.1
C[C@@H]1CN([C@@H](C)CO)C(=O)Cc2cc(NC(=O)Cc3ccccc3)ccc2O[C@H]1CN(C)C	3.7	1.5

The final two entries of the part above are carried over, then new ones follow.
SMILES	Vaccinia inh	Vaccinia inh Venus
COc1ccc2c3c(n(C)c2c1)[C@@H](CO)N(C(=O)CC1CC1)CC31CN(C(=O)C2CCC2)C1	6.4	6.1
C[C@@H]1CN([C@@H](C)CO)C(=O)Cc2cc(NC(=O)Cc3ccccc3)ccc2O[C@H]1CN(C)C	3.7	1.5
Cc1noc(C)c1NC(=O)Nc1ccc2c(c1)CC(=O)N([C@@H](C)CO)C[C@H](C)[C@H](CN(C)Cc1ccccc1)O2	-4.2	-4.5
C[C@@H]1CN([C@H](C)CO)C(=O)c2cc(Br)cnc2O[C@H]1CN(C)Cc1ccccn1	21.4	11.5
CC(C)NC(=O)N(C)C[C@H]1Oc2ccc(NC(=O)Cc3ccccc3)cc2CC(=O)N([C@H](C)CO)C[C@H]1C	22.2	11.7
N#C[C@H]1[C@@H](c2ccc(-c3ccc(F)cc3)cc2)[C@@H](CO)N1C(=O)Cc1ccccc1	-15.2	-12.3
COc1ccc(NC(=O)Nc2ccc3c(c2)CC(=O)N([C@@H](C)CO)C[C@H](C)[C@H](CN(C)Cc2ccc(C(=O)O)cc2)O3)cc1	9.2	4.0
CNC[C@@H]1Oc2c(NC(=O)c3ccncc3)cccc2C(=O)N([C@@H](C)CO)C[C@@H]1C	3.2	4.3
COc1ccccc1C#Cc1ccc2c(c1)[C@H]1[C@H](CCN1C(=O)c1ccncc1)[C@@H](CO)N2	6.8	3.0
C[C@@H]1CN([C@@H](C)CO)C(=O)c2cc(NS(=O)(=O)c3ccc(F)cc3)ccc2O[C@@H](C)CCCCO[C@@H]1CN(C)CC1CCCCC1	-21.0	-20.6
O=C(N[C@H]1CC[C@H](CC(=O)N2CCCCC2)O[C@H]1CO)c1ccccn1	3.4	-11.8
COc1ccc(CN(C)C[C@H]2OCCCC[C@@H](C)Oc3ccc(NC(=O)C4CCCCC4)cc3C(=O)N([C@@H](C)CO)C[C@H]2C)cc1	?	/
O=C(N[C@@H]1CC[C@H](CCNC(=O)C2CC2)O[C@@H]1CO)c1ccncc1	0.5	3.2
CCC(=O)N1C[C@H](C)[C@H](OC)CN(C)C(=O)c2cc(NC(=O)NC(C)C)ccc2OC[C@H]1C	0.6	1.0
Cc1ccc(Sc2ccc(NC(=O)c3ccc(F)cc3)cc2C#N)cc1	-7.4	-10.9
C[C@H]1CN([C@@H](C)CO)S(=O)(=O)c2ccc(Br)cc2O[C@H]1CN(C)C(=O)Cc1ccccc1	11.0	-1.9
C[C@@H]1CN([C@H](C)CO)C(=O)c2cc(NC(=O)Cc3ccccc3)ccc2O[C@@H]1CN(C)Cc1ccc(Cl)c(Cl)c1	?	/
C[C@@H]1CN([C@@H](C)CO)C(=O)CCCn2cc(nn2)CO[C@H]1CN(C)C(=O)Oc1ccc2ccccc2c1	5.6	6.6
COc1ccccc1-c1ccc2n(c1=O)C[C@@H]1[C@@H](CO)[C@H](C(=O)NC3CCC3)N(C(=O)C3CCC3)[C@H]21	15.8	3.9
COc1ccccc1S(=O)(=O)N[C@H]1CC[C@@H](CCNC(=O)C2CCC2)O[C@@H]1CO	7.4	12.0
C[C@H](CO)N1C[C@H](C)[C@@H](CN(C)S(=O)(=O)c2cccs2)OCc2cnnn2CCCC1=O	0.8	4.4
C[C@@H]1CCCCO[C@H](CN(C)S(=O)(=O)c2ccccc2)[C@H](C)CN([C@@H](C)CO)C(=O)c2cc(NC(=O)Nc3ccc(C(F)(F)F)cc3)ccc2O1	-29.9	-20.1
C[C@H](CO)N1C[C@H](C)[C@@H](CN(C)C(=O)CN(C)C)Oc2ncc(C3=CCCC3)cc2C1=O	36.9	20.8
C[C@@H]1CN([C@@H](C)CO)S(=O)(=O)c2ccc(C#CC3CC3)cc2O[C@@H]1CN(C)Cc1cccc(F)c1	?	/
C[C@@H]1CN([C@@H](C)CO)C(=O)c2cccc(NC(=O)c3cnccn3)c2O[C@@H]1CN(C)C(=O)Nc1cccc2ccccc12	-13.2	-10.3
C[C@@H]1CN([C@H](C)CO)C(=O)c2cc(C#CC3CCCCC3)cnc2O[C@H]1CN(C)S(=O)(=O)c1ccccc1	?	/
O=C(NC[C@H]1CC[C@H]2[C@H](CN2C(=O)C2CCOCC2)O1)c1cccnc1	13.5	22.4
CNC[C@H]1Oc2ncc(-c3ccc(OC)cc3)cc2C(=O)N([C@@H](C)CO)C[C@H]1C	-12.9	-10.9
COCC(=O)NC[C@@H]1[C@@H](c2ccccc2)[C@@H](CO)N1C(C)=O	8.9	4.9
C[C@@H]1CN([C@@H](C)CO)S(=O)(=O)c2ccc(Br)cc2O[C@H]1CN(C)C(=O)c1ccncc1	10.3	8.2
COCC(=O)Nc1ccc2c(c1)C(=O)N(C)C[C@H](OC)[C@H](C)CN(C(C)=O)[C@H](C)CO2	5.8	2.9
COc1cccc(CN2[C@@H]3CN(C(=O)CC(F)(F)F)c4ccccc4[C@@H]3[C@@H]2CO)c1	-0.7	7.4
COc1ccc2c3c(n(C)c2c1)[C@H](CO)N(Cc1ccccc1F)CC31CN(C(=O)C2CCCC2)C1	-18.9	-14.4
O=C(NC1CCCC1)[C@H]1[C@H](CO)[C@H]2Cn3c(ccc(-c4ccccc4)c3=O)[C@@H]1N2CCc1ccccc1	-19.8	-23.0
C[C@@H]1CCCCO[C@@H](CN(C)S(=O)(=O)c2ccccc2)[C@H](C)CN([C@H](C)CO)C(=O)c2cc(NS(=O)(=O)c3ccc(Cl)cc3)ccc2O1	?	/
CC=Cc1ccc2n(c1=O)C[C@@H]1[C@@H](CO)[C@H](C(=O)NCCN3CCCCC3)N(C(C)=O)[C@H]21 (mixture of isomers)	0.5	-11.6
CCC(=O)Nc1ccc2c(c1)C(=O)N(C)[C@H]1CC[C@@H](CC(=O)NCC3CCCCC3)O[C@H]1CO2	-3.7	-2.5
COc1ccc(S(=O)(=O)Nc2cccc3c2O[C@H](CN(C)Cc2ccccc2)[C@H](C)CN([C@H](C)CO)C3=O)cc1	8.2	9.0
COc1ccc(CN(C)C[C@H]2OCCCC[C@H](C)Oc3ccc(NS(=O)(=O)c4ccc(F)cc4)cc3C(=O)N([C@H](C)CO)C[C@H]2C)cc1	?	/
COC(=O)C[C@H]1CC[C@H]2[C@@H](COc3ccc(NC(=O)c4ccccc4OC)cc3C(=O)N2C)O1	7.9	4.0
CC(=O)N(C)C[C@H]1[C@@H](c2ccc(-c3ccccc3)cc2)[C@@H](CO)N1C(=O)C1CC1	11.8	13.1
CCCNC(=O)Nc1ccc2c(c1)C(=O)N(C)C[C@H](OC)[C@@H](C)CN(Cc1ccc(-c3ccccn3)cc1)[C@H](C)CO2	-24.4	-14.2
C[C@@H]1CN([C@H](C)CO)C(=O)c2cc(NS(=O)(=O)c3ccc(F)cc3)ccc2O[C@@H]1CN(C)C(=O)Nc1ccc(C(F)(F)F)cc1	3.0	6.6

Some of the entries above in a different format:
SMILES: COc1ccc(CN(C)C[C@H]2OCCCC[C@H](C)Oc3ccc(NS(=O)(=O)c4ccc(F)cc4)cc3C(=O)N([C@H](C)CO)C[C@H]2C)cc1
  Vaccinia inh: ?
  Vaccinia inh Venus: /
SMILES: COC(=O)C[C@H]1CC[C@H]2[C@@H](COc3ccc(NC(=O)c4ccccc4OC)cc3C(=O)N2C)O1
  Vaccinia inh: 7.9
  Vaccinia inh Venus: 4.0
SMILES: CC(=O)N(C)C[C@H]1[C@@H](c2ccc(-c3ccccc3)cc2)[C@@H](CO)N1C(=O)C1CC1
  Vaccinia inh: 11.8
  Vaccinia inh Venus: 13.1
SMILES: CCCNC(=O)Nc1ccc2c(c1)C(=O)N(C)C[C@H](OC)[C@@H](C)CN(Cc1ccc(-c3ccccn3)cc1)[C@H](C)CO2
  Vaccinia inh: -24.4
  Vaccinia inh Venus: -14.2

High-throughput results: PubChem BioAssay, Broad Institute
